BRCT inh green: qHTS Assay for Inhibitors of BRCT-Phosphoprotein Interaction (Green Fluorophore); Potency, µM (doses to about 76.9 µM), for the others: at the top dose activity change, negative = inhibition, hits mostly inhibitors; 0.05% of 75,000 active; BRCA1 BRCT-phosphopeptide binding, green fluorescence polarization;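 note: potency is the fitted concentration of half-maximal effect; plate controls were peptide without protein for full effect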
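Fluorescence polarization: His-tagged BRCT (~35 kDa BRCA1 C-terminus, 250 nM) bound to 100 nM fluorescein-labeled phosphorylated 10-aa BACH1 peptide, pH 7.3 phosphate buffer with DTT and Tween 20. Compounds incubated 12 min at room temperature; inhibition read as lowered polarization.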
BRCT PPI red: qHTS Assay for Inhibitors of BRCT-Phosphoprotein Interaction (Red Fluorophore); BRCT-phosphopeptide binding, red fluorescence polarization; Breast cancer type 1 susceptibility protein (Homo sapiens), P38398; Potency, µM (doses to about 76.9 µM), for the others: top-dose activity change, negative = inhibition, usual class: inhibitors; 0.03% of 75,000 active; note: % is set by controls: 0 for no effect and ±100 for the full control effect
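Fluorescence polarization: 100 nM His-tagged BRCA1 BRCT with 100 nM TAMRA-labelled phospho-BACH1 decapeptide, phosphate buffer pH 7.3 with 150 mM NaCl, DTT, 0.01% Tween 20; 12 min RT. Binding inhibition seen as FP decrease.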
USP2a inh: qHTS Assay for Inhibitors of Ubiquitin-specific Protease USP2a. Ubiquitin carboxyl-terminal hydrolase 2 (Homo sapiens), O75604. USP2a enzymatic assay, qHTS inhibition. Potency, µM (highest dose often 38.3 µM), for inactives: top-dose activity change, negative = inhibition, hits mostly inhibitors. 0.1% of 60,000 active. AID 927, 2007;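 note: potency is the fitted concentration of half-maximal effect; nearly all actives have a fitted effect of over 60% in size; plate controls were DMSO for no effect and NEM full inhibition control for full effect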
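Coupled readout: USP2-cleaved Ub-PLA2 (20nM final) turns over NBD C6-HPC (20uM final), Ex 460nm/Em 535nm after 2.5 h, time-zero read flagging artifacts. Enzyme (20nM final, pH 8.0 Tris) given 30 min RT with compound first; NEM defines full inhibition.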
Fluorescein autfl: qHTS Assay for Spectroscopic Profiling in Fluorescein Spectral Region; Compound autofluorescence, 480/540 nm, fluorescein-equivalent; active compounds read high; max fluorescein-equivalent concentration, M; AID 593, 2007; 0.91% of 59,000 active; in the data active = max fluorescein-equivalent concentration above about 10 nM; inconclusive = between about 1.1 nM and that limit
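Tris 100 mM pH 8.0; 15 min RT; CCD read, ex 480/em 540 nm. Output: fluorescein-equivalent concentration per compound concentration, from six-point dye series on each plate.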
HEK293 cAMP ctrl: qHTS Assay for Agonists of the Thyroid Stimulating Hormone Receptor: Activators of Intracellular cAMP Concentrations in Parental HEK 293; parental HEK293 CNG cAMP sensor, membrane potential fluorescence; Potency, µM (series often up to 57.1 µM), inactives show at the top dose activation, hits mostly activators; 2.5% of 73,000 active; AID 938, 2007; note: potency is the fitted concentration of half-maximal effect; % of control where 0% means no effect; nearly all actives have a fitted effect of over 55% in size
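Parental HEK 293 cells stably expressing a cAMP-gated CNG channel were loaded with membrane potential dye containing 100 uM RO 20-1724 for 60 min. Compound added for 30 min; depolarization read as fluorescence intensity at 590 nm.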
GFP derepression: qHTS Assay for Epigenetic Modulators; AID 597, 2007; Potency, µM (series often up to 46.1 µM), for the others: at the top dose GFP derepression (activation); 0.09% of 68,000 active; mouse C127i GFP locus derepression, cytometry, 30 h; note: % of control where 0% means no effect
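Read-out is the number of GFP-positive cells, scored as fluorescent objects 20 to 120 um wide, reflecting derepression of a silenced CMV-GFP reporter in murine C127i cells after 30 h compound exposure at 37 C.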
Ub-GFP proteasome: Ubiquitin-GFP Assay; Ubiquitin-GFP reporter cells, proteasome inhibition, GFP fluorescence; response scale: untreated = 0%, 10 µM MG-132 = 100%; Potency, µM (series often up to 45.9 µM), without a hit: top-dose activation (GFP accumulation), hits mostly activators; 67,000 tested, under 10 active; AID 526, 2006; active = well fitted activation curve with a large enough effect, not every such curve was filed as active; inconclusive = small, poorly fitted or top-dose-only effect, or another doubt; inactive = no such curve, though single readings can be large or run the other way; note: potency is the fitted concentration of half-maximal effect
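U2OS cells expressing ubiquitin(G76V)-GFP, seeded overnight in 0.5% FBS medium, then treated 4 hr at 37 C across 46 uM to 2.9 nM. GFP-positive cells counted by laser cytometry (488 ex/515 em); %activity scaled between basal and 10 uM MG-132.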
The depositor's hits bear a star; i = inactive; ? = inconclusive; nt = no result given; [ ] = dose if it differs, or a comment. Unless noted, calls come from the whole dose curve; as a rule, active = well fitted curve in the direction sought with a large enough effect; inconclusive = small, poorly fitted or top-dose-only effect, or another doubt; inactive = no such curve, though single readings can be large; an effect the other way counts as inactive or inconclusive. Not all compounds are listed; rates above refer to the full screens.

entry	smiles	BRCT inh green	BRCT PPI red	USP2a inh	Fluorescein autfl	HEK293 cAMP ctrl	GFP derepression	Ub-GFP proteasome
1	COc1ccc(Cn2nnnc2CN(Cc2cc3ccc(C)cc3[nH]c2=O)C2CCCC2)cc1	0.0%	-4.9%	36.4%[activator]	i	?	2.4%	-2.5%
2	CCOc1ccc2nc3cc(N=Nc4ccc(N)nc4N)ccc3c(N)c2c1	-5.8%[15.4 µM]	-3.5%[15.4 µM]	nt	?	0.4%[11.4 µM]	2.2%[9.22 µM]	4.6%[9.17 µM]
3	COc1cccc(Cn2c(=O)c(-c3cccs3)nc3cnc(N(C)C)nc32)c1	22.6%	0.3%	60.4%[activator]	i	16.6%	2.4%[9.22 µM]	4.0%
4	Cc1ccc(C)c2[nH]c(=O)c(C(c3nnnn3Cc3ccco3)N3CCc4ccccc4C3)cc12 (stereo unspecified)	2.6%	-0.4%	31.5%[activator]	?	10.0%	-1.6%	-1.7%
5	Cc1ccc(S(=O)(=O)c2cc3c(=O)n4ccccc4nc3n(Cc3ccco3)c2=N)cc1C	-10.1%	-10.2%	22.0%	1.24e-08M*	-3.1%	0.0%	-3.8%
6	COC(=O)C1=CN(CCCN2CCCC2=O)C=C(C(=O)OC)C1c1cccs1	-2.8%	0.0%	2.0%	?	7.7%	2.7%	1.1%
7	COc1ccc(CCCc2nnc(SCC(=O)Nc3ncc(C)s3)o2)cc1	-2.3%	1.4%	5.7%	i	1.5%	0.0%	7.4%
8	COc1cc2cc(C(c3nnnn3C(C)(C)C)N3CCc4ccccc4C3)c(=O)[nH]c2cc1OC (stereo unspecified)	-7.0%	-1.9%	19.2%	i	?	0.0%	2.6%
9	COCCn1c(=O)c(-c2cccs2)nc2cnc(N3CCOCC3)nc21	-12.2%	0.6%	289.9%[activator]	?	4.0%	0.0%[9.22 µM]	-2.2%
10	N#Cc1c2c(c(NCCCN3CCOCC3)n3c1nc1ccccc13)CCC2	-2.2%	-1.1%	33.1%[activator]	i	-54.0%[inhibitor]	-1.3%	5.5%
11	COc1ccc(-c2nc3cnc(N4CCOCC4)nc3n(-c3ccccc3)c2=O)cc1	-1.6%	1.3%	71.5%[activator]	?	?	0.0%[9.22 µM]	-8.3%
12	CN1C(=O)c2cccc3c(S(=O)(=O)NCc4ccco4)ccc1c23	-2.7%	-0.5%	7.6%	?	1.8%	-2.6%	4.1%
13	COc1cccc(Cn2c(=O)c(-c3ccc(Cl)cc3)nc3cnc(N4CCOCC4)nc32)c1	-1.7%	0.3%	158.6%[activator]	i	?	2.3%[9.22 µM]	0.0%
14	COC(=O)c1ccc2c(=O)sc(N3CCC(C(N)=O)CC3)nc2c1	-2.2%	0.6%	-5.4%	?	-14.2%	1.8%	-4.6%
15	Cc1cccc2cc(C#N)c(N3CCCC3)nc12	1.0%	0.8%	-7.0%	i	26.1%	2.6%	3.9%
16	COCCNc1c(-c2ccc(O)cc2)nc2ccc(Cl)cn12	-0.7%	0.5%	-1.4%	i	-9.7%	-1.2%	-2.6%
17	COc1ccccc1CCn1c(=O)c(-c2cn(C)c3ccccc23)nc2cncnc21	17.4%	-4.2%	194.8%[activator]	i	?	2.7%[9.22 µM]	-7.8%
18	O=C(c1ccco1)[C@@H]1[C@@H]2C(=O)N(c3ccccc3)C(=O)[C@@H]2C2c3ccccc3C=CN21 (stereo partly specified)	-2.3%	-1.2%	17.3%	1.76e-08M*	-9.8%	-4.2%	nt
19	CN(C)c1ncc2nc(-c3cccc(C#N)c3)c(=O)n(C)c2n1	-0.6%	0.5%	18.9%	i	8.9%	2.3%[9.22 µM]	3.3%
20	CN1Cc2sc(N)c(C#N)c2CC1(C)C	9.4%	3.3%	20.8%	3.1e-08M*	2.6%	0.0%	-2.6%
21	Nc1ccc2c(c1)-c1ccccc1S(=O)(=O)N2	-0.8%	-0.6%	-0.5%	i	10.3%	-1.0%	5.3%
22	CCN(CC)c1ccc(-c2nn3c(-c4ccccc4OC)nnc3s2)cc1	-0.1%	0.0%	?	?	?	-2.6%	-3.0%
23	N=c1c(C(=O)NCc2ccc3c(c2)OCO3)cc2c(=O)n3ccccc3nc2n1Cc1cccnc1	3.8%	-2.1%	11.8%	?	-80.7%[inhibitor]	-2.1%	3.3%
24	COc1ccc(C2C=C(c3ccc(Br)cc3)Nc3nc(N4C(=O)CCC4=O)nn32)cc1 (stereo unspecified)	-4.1%	0.3%	64.2%[activator]	1.14e-08M*	3.3%	-4.7%	-7.4%
25	COc1ccccc1C1C=C(c2ccc(Cl)cc2)Nc2nc(NS(C)(=O)=O)nn21 (stereo unspecified)	?	0.3%	4.0%	1.49e-08M*	-2.5%	-2.1%	3.5%
26	CC(C)n1c(=N)c(C(=O)NCCc2ccccc2)cc2c(=O)n3ccccc3nc21	-2.8%	0.3%	15.6%	i	-82.4%[inhibitor]	-1.0%	-1.3%
27	CN(C)c1ncc2nc(-c3ccccc3)c(=O)n(C)c2n1	0.4%	0.0%	28.1%	i	11.1%	-0.5%[9.22 µM]	8.9%
28	CC1(C)Cc2c(c(N3CCOCC3)nc3sc(-c4ccc(C(=O)O)o4)c(N)c23)CO1	10.7%	-0.4%	19.6%	?	-3.6%	-2.0%	-1.6%
29	CN(C)c1ncc2ncc(=O)n(C)c2n1	-1.4%	0.6%	-28.4%	?	11.8%	5.4%[9.22 µM]	0.6%
30	N#Cc1cccc(-c2nc3cnc(N4CCOCC4)nc3n(C[C@H]3CCCO3)c2=O)c1	-1.0%	-0.2%	30.5%[activator]	?	?	0.0%[9.22 µM]	3.8%
31	CCOC(=O)c1cc(-c2ccc3c(c2)OCO3)nc2onc(C)c12	-0.3%	0.9%	12.1%	i	29.0%	1.2%	-8.1%
32	COc1cccc(Cn2c(=O)c(-c3ccccc3)nc3cnc(N4CCNCC4)nc32)c1	-2.0%	0.4%	152.2%[activator]	i	?	-6.0%[9.22 µM]	1.3%
33	COCCn1c(=O)c(-c2ccc(OC)cc2)nc2cnc(Oc3ccc(OC)cc3)nc21	-2.8%	-0.5%	43.6%[activator]	i	?	2.2%[9.22 µM]	-0.9%
34	COc1ccc(-c2nc3cnc(Nc4ccccc4)nc3n(Cc3cccs3)c2=O)cc1	9.2%	0.6%	297.3%[activator]	?	16.2%	15.7%[9.22 µM]	12.9%
35	N#CCCn1c(=O)c(-c2ccc(F)cc2)nc2cnc(Oc3ccccc3)nc21	0.2%	-1.4%	43.1%[activator]	i	?	-6.0%[9.22 µM]	1.7%
36	CN1CCN(c2ncc3nc(-c4cccs4)c(=O)n(-c4ccccc4)c3n2)CC1	1.0%	1.1%	113.4%[activator]	?	7.5%	2.7%[9.22 µM]	6.8%
37	C=C1CCC(O)C/C1=C\C=C1/CCCC2(C)C1CCC2C(C)CCCC(C)C (stereo unspecified)	0.5%	-2.3%	nt	nt	nt	nt	nt
38	Cn1c(=O)c2[nH]c(CS(=O)(=O)Cc3nc4c([nH]3)c(=O)n(C)c(=O)n4C)nc2n(C)c1=O	-16.0%[15.4 µM]	-1.5%[15.4 µM]	nt	1.22e-07M*	-8.9%[11.4 µM]	0.0%[9.22 µM]	-1.9%[9.17 µM]
39	CCCN1CC=C2C(C#N)=C(N)C(C#N)(C#N)C(c3cc(OC)ccc3OC)C2C1 (stereo unspecified)	0.1%	-0.4%	10.3%	1.04e-08M*	6.4%	-3.4%	-2.8%
40	Cc1ccc(C)c(S(=O)(=O)C(C#N)c2nc3ccccc3nc2N2CCCC2)c1 (stereo unspecified)	5.6%	-0.8%	34.3%[activator]	1.07e-08M*	-11.4%	3.8%	1.7%
41	O=c1c(-c2ccccc2)nc2cnc(Nc3ccccc3)nc2n1Cc1cccs1	-2.0%	1.3%	251.9%[activator]	?	13.1%	-0.4%[9.22 µM]	-2.0%
42	Cc1c(OC(=O)CNC(=O)OC(C)(C)C)ccc2c3c(c(=O)oc12)CCC3	-0.2%	-1.0%	23.3%	i	3.9%	0.0%	0.8%
43	Cc1ccc(-c2cn3nc(C)c(C)nc3n2)cc1	0.8%	-0.8%	9.1%	?	3.1%	-1.6%	nt

Part of the list above in order of count of non-hydrogen atoms, ascending:
entry	smiles	BRCT inh green	BRCT PPI red	USP2a inh	Fluorescein autfl	HEK293 cAMP ctrl	GFP derepression	Ub-GFP proteasome
31	CCOC(=O)c1cc(-c2ccc3c(c2)OCO3)nc2onc(C)c12	-0.3%	0.9%	12.1%	i	29.0%	1.2%	-8.1%
36	CN1CCN(c2ncc3nc(-c4cccs4)c(=O)n(-c4ccccc4)c3n2)CC1	1.0%	1.1%	113.4%[activator]	?	7.5%	2.7%[9.22 µM]	6.8%
26	CC(C)n1c(=N)c(C(=O)NCCc2ccccc2)cc2c(=O)n3ccccc3nc21	-2.8%	0.3%	15.6%	i	-82.4%[inhibitor]	-1.0%	-1.3%

Some of these compounds in order of SMILES length, rising.
entry	smiles	BRCT inh green	BRCT PPI red	USP2a inh	Fluorescein autfl	HEK293 cAMP ctrl	GFP derepression	Ub-GFP proteasome
43	Cc1ccc(-c2cn3nc(C)c(C)nc3n2)cc1	0.8%	-0.8%	9.1%	?	3.1%	-1.6%	nt
37	C=C1CCC(O)C/C1=C\C=C1/CCCC2(C)C1CCC2C(C)CCCC(C)C (stereo unspecified)	0.5%	-2.3%	nt	nt	nt	nt	nt
42	Cc1c(OC(=O)CNC(=O)OC(C)(C)C)ccc2c3c(c(=O)oc12)CCC3	-0.2%	-1.0%	23.3%	i	3.9%	0.0%	0.8%
26	CC(C)n1c(=N)c(C(=O)NCCc2ccccc2)cc2c(=O)n3ccccc3nc21	-2.8%	0.3%	15.6%	i	-82.4%[inhibitor]	-1.0%	-1.3%
33	COCCn1c(=O)c(-c2ccc(OC)cc2)nc2cnc(Oc3ccc(OC)cc3)nc21	-2.8%	-0.5%	43.6%[activator]	i	?	2.2%[9.22 µM]	-0.9%
39	CCCN1CC=C2C(C#N)=C(N)C(C#N)(C#N)C(c3cc(OC)ccc3OC)C2C1 (stereo unspecified)	0.1%	-0.4%	10.3%	1.04e-08M*	6.4%	-3.4%	-2.8%
28	CC1(C)Cc2c(c(N3CCOCC3)nc3sc(-c4ccc(C(=O)O)o4)c(N)c23)CO1	10.7%	-0.4%	19.6%	?	-3.6%	-2.0%	-1.6%

Screening results from PubChem.
